Six1-Eya2 blk: inhibitors of human Six1/Eya2 interaction | Q15475+O00167 | AID 651725 | AlphaScreen GST-Six1/His-Eya2 binding, biochemical; stronger effect = lower value; control for the full effect not named in the record | activity change, % (concentration not given with the values) | hit rate 0.56% among 360,000; in the data active = activity change below about -65%; inconclusive = about -30% to -65%; inactive = above about -30%; further: on the % scale 0 is the no-effect control and ±100 the full control effect
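Compounds are tested against tagged Six1 and Eya2 proteins bridged by glutathione donor and nickel acceptor beads; after a one-hour incubation at 37 °C without light, AlphaScreen emission is recorded.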
gsp antagonist: antagonizes gsp, the McCune-Albright syndrome mutation | hit rate 0.4% among 340,000 | gsp-mutant cells, cAMP HTRF, 30 min; control for the full effect not named in the record | AID 624288 | Potency, µM (highest dose often 76.9 µM), inactives show at the highest dose activity change, negative = inhibition, actives largely listed as inhibitors; active = falling curve of any shape with a large fitted effect; inconclusive = falling curve, mostly with a smaller effect; inactive = flat or rising curve; cell line not stated here;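 further: intracellular cAMP measured with PDE inhibitor Ro 20-1724 present during compound exposure; potency means the concentration at half of the fitted maximal effect; on the % scale 0 is the no-effect control and ±100 the full control effect; nearly all actives have a fitted effect of over 65% in size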
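Cells, 2000/well, grown 16–24 h in DMEM 10% FBS with 0.5 mg/ml G418, then compounds plus […] (300 uM addition stock), 30 min at 37C. cAMP read by HTRF (cAMP-d2 and anti-cAMP antibody-K in lysis buffer) after 30 min RT.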
D2 agonist: agonists of human D2 dopamine receptor (beta-arrestin) | P14416 | DiscoveRx PathHunter D2 beta-arrestin, luminescence, 90 min; 100% = 57 uM dopamine signal | activation, % (test concentration not listed) | hit rate 0.084% among 360,000 | AID 624465; in the data active = activation above about 40%; inconclusive = about 15% to 40%; inactive = below about 15%; further: compound concentration not given in the record; the text of the record calls up to 30% inactive
Target sequence (P14416 whole entry, looked up): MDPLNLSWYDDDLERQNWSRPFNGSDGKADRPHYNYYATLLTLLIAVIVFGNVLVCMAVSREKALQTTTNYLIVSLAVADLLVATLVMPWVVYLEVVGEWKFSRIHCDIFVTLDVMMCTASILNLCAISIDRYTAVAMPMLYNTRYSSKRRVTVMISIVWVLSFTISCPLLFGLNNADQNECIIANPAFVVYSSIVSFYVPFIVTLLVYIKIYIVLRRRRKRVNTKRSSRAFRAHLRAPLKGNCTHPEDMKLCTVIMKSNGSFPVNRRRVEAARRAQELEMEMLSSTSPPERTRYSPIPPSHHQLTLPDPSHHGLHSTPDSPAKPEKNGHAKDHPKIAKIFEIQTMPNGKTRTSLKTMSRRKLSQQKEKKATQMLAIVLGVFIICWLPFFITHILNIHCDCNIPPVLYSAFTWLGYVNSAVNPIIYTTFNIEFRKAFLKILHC
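DiscoveRx PathHunter D2 beta-arrestin cells (2,100/well) attached overnight, then compound-stimulated 90 min at 37 C in HBSS/10 mM HEPES/0.1% Tween-20 buffer; beta-galactosidase complementation read by luminescence after 1 h at ambient temperature. Dopamine 57 uM final (EC100) as control.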
D2 PAM: potentiates the human D2 dopamine receptor allosterically; DiscoveRx D2 beta-arrestin cells, luminescence, 90 min; 100% = 57 uM dopamine signal; AID 624464; P14416; potentiation, % (concentration not given with the values); hit rate 0.23% among 360,000; active = potentiation of 50% or more; inconclusive = 30% to 50%; inactive = 30% or less;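 further: compound concentration not given in the record; tested on top of an EC20 dose of dopamine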
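PathHunter D2 cells, attached overnight at 37 deg C, received compound in DMSO plus dopamine at EC20 (50 nM final) for 90 min at 37 deg C. Beta-arrestin recruitment was read as luminescence after 1 h with detection reagent at ambient temperature.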
gsp ag: activates gsp, the McCune-Albright syndrome mutation | gsp mutant cells, cAMP HTRF, 30 min; control for the full effect not named in the record | Potency, µM (series often up to 76.9 µM), for the others: top-dose activation (cAMP increase), usual class: activators | hit rate 0.13% among 340,000; active = well fitted activation curve with a large enough effect; inconclusive = small, poorly fitted or top-dose-only effect, or another doubt; inactive = no such curve, though single readings can be large or run the other way; cell line not stated here;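 further: phosphodiesterase inhibitor Ro 20-1724 added with compounds to block cAMP breakdown; potency means the concentration at half of the fitted maximal effect; nearly all actives have a fitted effect of over 60% in size; about a fifth of the inactives were tested at one dose only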
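Cells stably selected in G418 were plated at 2000/well, grown 16-24 hr, then given compounds in DMSO with the PDE inhibitor […] (300 uM solution added) for 30 min at 37C; cAMP was read by HTRF.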
CtBP-E1A blk: blocks the CtBP interaction with E1A | AlphaScreen GST-E1A/His-CtBP binding, 1536-well; stronger effect = lower value; control for the full effect not named in the record | activity change, % (test concentration not listed) | hit rate 0.49% among 340,000 | AID 651724; in the data active means activity change below about -65%; inconclusive means about -30% to -65%; inactive means above about -30%; further: on the % scale 0 is the no-effect control and ±100 the full control effect; compound concentration not given in the record
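GST-E1A and His-tagged CtBP (125 nM each as 5X stock) were preincubated with pin-transferred compound for 2 h at 37 °C in the dark, then glutathione donor and nickel acceptor beads were added for 1 h before AlphaScreen reading.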
* hit, by the source's call; ? = inconclusive; . = not tested or not shown; [ ] = dose if it differs, or a comment.

SMILES | Six1-Eya2 blk | gsp antagonist | D2 agonist | D2 PAM | gsp ag | CtBP-E1A blk
CC(=O)c1cccc(NC(=O)NCCc2ccc(Cl)cc2)c1 | 1 | -1% | -2.7 | -16 | 3% | -8
CCNC(=S)NNC(=O)c1cc(CC(C)C)nc2ccccc12 | 1 | 6% | -8.1 | -28 | -31%[inhibitor] | 2
CCCc1cc(=O)[nH]c(SCC(=O)Nc2ccccc2C#N)n1 | -3 | -4% | -2.1 | -6 | -3% | 0
CCN1C(=NCCc2cccnc2)N[C@@H](c2ccccc2)C(C(=O)OC)=C1C | 7 | 8% | -1.8 | -12 | . | 0
CC(OC(=O)c1ccc(-c2ccc(O)cc2)cc1)C(=O)NC1CCCCC1C (stereo not drawn) | -1 | -19% | 1.0 | -20 | -69%[inhibitor] | -9
CCN1C(=O)[C@H]2[C@@H](c3ccc(-c4ccc(Cl)c(Cl)c4)c(OC)c3)N[C@@](Cc3ccccc3)(C(=O)OC)[C@H]2C1=O | -14 | -8% | -0.6 | -6 | -36%[inhibitor] | -5
CC(C)C(c1nnnn1Cc1ccc(F)cc1)N1CCN(C2CCCC2)CC1 (stereo not drawn) | 3 | 14% | -4.4 | -3 | 1%[15.4 µM] | 7
O=C(NCc1ccco1)c1ccc2c(=O)n(Cc3ccco3)c(SCC(=O)N3CCCC3)nc2c1 | -19 | -15% | 0.0 | -3 | 32% | -22
COc1ccc(-c2oc3ccccc3c(=O)c2OC(C)=O)cc1 | 8 | -3% | -4.0 | -16 | 13%[15.4 µM] | -2
CCN(CCn1cccn1)Cc1nc(-c2ccccc2)no1 | 24 | -13% | -4.1 | -6 | 6%[15.4 µM] | 1
CC1CCN(C(=O)COC(=O)CSc2ccc(C(N)=O)cc2[N+](=O)[O-])CC1 | -2 | -26% | -7.6 | -33 | 16% | 7
CCCn1c2ccccc2c2cnn(CC(=O)NCCOC)c(=O)c21 | -2 | 0% | -0.7 | -14 | 16% | 0
Cc1noc(NS(=O)(=O)c2ccc(NS(=O)(=O)c3ccc(C(C)(C)C)cc3)cc2)c1C | -11 | . | -1.2 | -7 | -93%[inhibitor] | 2
COc1cc(C(C(=O)NC2CCCCC2)N(Cc2cccs2)C(=O)Cc2c[nH]c3ccccc23)cc(OC)c1OC (stereo not drawn) | -10 | -25% | -3.0 | -8 | ? | 0
CCCSc1nc(=S)n(Cc2ccccc2)c(C)c1C(C)=O | -6 | 18% | 6.1 | -4 | 14% | -1
COc1cc(OC)cc(C(=O)OCC(=O)Nc2nnc(-c3ccccc3)o2)c1 | ? | -11% | -1.8 | -1 | 10%[15.4 µM] | ?
FC(F)(F)c1ccc(-c2nc(=S)[nH][nH]2)cc1 | -4 | 9% | 1.0 | -13 | ? | -2
CCOc1ccc(C(=O)Nc2c3c(nn2C(C)(C)C)CSC3)cc1OCC | 0 | 7% | -3.7 | -7 | -35% | 3
O=C(CSc1nccc(=O)[nH]1)Nc1ccc2c(c1)OCCO2 | -12 | . | 1.6 | 4 | -38%[15.4 µM] | 22
O=C(O)CCc1nn2c3ccccc3n(CC(=O)O)c2nc1=O | -16 | 7% | -2.2 | -4 | 26% | -8

Gathered by group, the entries above containing two or more sulfur atoms
SMILES | Six1-Eya2 blk | gsp antagonist | D2 agonist | D2 PAM | gsp ag | CtBP-E1A blk
Cc1noc(NS(=O)(=O)c2ccc(NS(=O)(=O)c3ccc(C(C)(C)C)cc3)cc2)c1C | -11 | . | -1.2 | -7 | -93%[inhibitor] | 2
CCCSc1nc(=S)n(Cc2ccccc2)c(C)c1C(C)=O | -6 | 18% | 6.1 | -4 | 14% | -1

Continuation.
SMILES | Six1-Eya2 blk | gsp antagonist | D2 agonist | D2 PAM | gsp ag | CtBP-E1A blk
CCOC(=O)c1nnn(-c2nonc2N)c1CN1CCCC1 | 0 | 50µM* | 3.2 | -1 | -58%[inhibitor] | 0
Cc1ccc(SCC(=O)N2CCc3ccccc32)cc1 | 29 | -1% | -0.6 | -4 | 11% | 11
CC(C)(C)c1ccc(C(=O)N2CCC(C(=O)NCCC3=CCCCC3)CC2)cc1 | 0 | -12% | -1.8 | -11 | 5% | 2
Cc1cc(C)n(CC(=O)NNC(=O)CCCOc2ccc(Cl)cc2C)n1 | 2 | -2% | -2.6 | -23 | -4%[15.4 µM] | 2
C=CCOC(=O)C1=C(C)OC(N)=C(C#N)C1c1ccc2c(c1)OCO2 (stereo not drawn) | -9 | -10%[15.4 µM] | -1.3 | -7 | 20% | 2
CC(O)(C#CCN1CCOCC1)c1ccccc1 (stereo not drawn) | 5 | -10% | -1.0 | -9 | 3%[15.4 µM] | -17
CC1(C)Cc2c(sc3c2c(N)nc(=S)n3Cc2ccc(Br)cc2)CO1 | 3 | 8% | -1.7 | -4 | -1%[15.4 µM] | 3
CCOC(=O)/C=C/[C@H]1Cc2ccccc2CO1 | 12 | 4% | -4.4 | -12 | ? | -19
CCCn1c(N)c(Sc2ccc(Cl)cc2)c(=O)n(CCC)c1=O | -4 | -1% | -6.4 | -21 | -4% | 5
CSc1ccc(CN(C)Cc2nc3cc(C(F)(F)F)ccc3c(=O)[nH]2)cc1 | -9 | -9% | -2.6 | -12 | -3%[15.4 µM] | -10
COc1ccc(NC(=O)c2oc3ccccc3c2NC(=O)c2ccco2)cc1 | -2 | 3% | -2.0 | -5 | 8% | 3
Cc1ccc(NC(=O)CSc2nc(N)cc(=O)[nH]2)cc1S(=O)(=O)N1CCCCC1 | -5 | 2% | -3.0 | -9 | -38% | -11
C=CCNC(=O)c1ccccc1NC(=O)c1ccccc1SC | -14 | -6% | -6.0 | -1 | -23%[15.4 µM] | 15
CNC(=O)CSc1cnc2ccccc2n1 | 1 | 14% | -3.9 | -4 | 3%[15.4 µM] | 4
CCCCN(C(=O)c1cc(S(=O)(=O)N2CCCCCC2)ccc1OC)c1c(N)n(CCC)c(=O)[nH]c1=O | -2 | 7% | -1.6 | -20 | -11%[15.4 µM] | -25
CCC(C)NC(=S)Nc1ccc(C(=O)OC)cc1 (stereo not drawn) | 2 | 6% | 3.2 | -10 | 0%[15.4 µM] | 11
CCOC(=O)C1(C)CCCN1C(=O)c1cccc(F)c1 (stereo not drawn) | 27 | . | -5.7 | -2 | . | 0
COc1ccc(C)cc1NC(=O)ON=C1CCCCC1 | -2 | . | 3.9 | -10 | . | 4
CC(C)Oc1ccc2ccccc2c1CNC[C@H]1O[C@@H](n2ccc(N)nc2=O)[C@H](O)[C@@H]1O | 0 | . | -7.0 | -4 | -89%[inhibitor] | 2
Cc1cccn2c(CN3CCCN(C=O)CC3)c(C(=O)N(C)CCc3ccccc3)nc12 | -12 | 4% | -4.3 | -19 | 35% | .
COc1cccc(NC(=O)COc2cccc3c2CCNC3=O)c1 | -9 | 3% | -2.7 | -8 | 9% | -7
Cc1ccccc1N1C(=O)c2cc(S(N)(=O)=O)c(Cl)cc2NC1C (stereo not drawn) | 2 | 1% | -7.5 | 5 | . | 5
Cc1ccc(CSCc2ccc(C(=O)NC3CCCC3)o2)cc1 | 3 | 5% | -0.9 | 3 | ? | 6
Cc1ccc(N2C(=O)SC(N(CC(=O)O)c3cccc(C)c3)C2=O)cc1 (stereo not drawn) | -7 | -8% | -3.0 | -6 | 0% | 0
CC(=O)c1ccc(N2C(=NC(=O)CCc3ccccc3)SC3CS(=O)(=O)CC32)cc1 (stereo not drawn) | 1 | 8% | -9.1 | -4 | -22% | 1
COc1ccc(S(=O)(=O)NCC2(N3CCOCC3)CCCCC2)cc1OC | -2 | 11% | -3.2 | -61 | 18%[15.4 µM] | 0
CCn1c2ccccc2c2cc(N=C3SC(CC(=O)Nc4ccccc4)C(=O)N3C)ccc21 (stereo not drawn) | 0 | 4% | -1.9 | 9 | -15% | 6
CC1CC=C(c2ccccc2)C(=S)N1 (stereo not drawn) | -4 | 8% | -0.2 | -3 | -6%[15.4 µM] | 3
Nn1c(SCC(=O)NCc2ccccc2)nnc1C1CC1 | -14 | 8% | -1.8 | 0 | 15% | -27
Cc1cccc(C(=O)N2N=C(c3ccc(NS(C)(=O)=O)cc3)CC2c2cccs2)c1 (stereo not drawn) | 6 | ? | 2.4 | 4 | ? | -2
Cc1cc(NS(=O)(=O)c2ccc(NC(=O)c3ccco3)cc2)no1 | -2 | -10% | -2.1 | 7 | -17% | 5
O=C(CCl)N(Cc1ccccc1)c1ccccc1 | -1 | -2% | 0.3 | 1 | -50%[inhibitor] | 1
O=C(Cn1nnc2ccccc21)c1ccc(Cl)cc1 | -2 | -4% | -5.1 | -6 | 2% | -10
Cn1nnnc1SCC(=O)N1N=C(c2cccs2)CC1c1cccs1 (stereo not drawn) | 1 | -8% | -0.3 | -7 | -5% | -3
CCCN(C(=O)Cc1coc2cc(OC)ccc12)C1CCS(=O)(=O)C1 (stereo not drawn) | -13 | -6% | -8.4 | -6 | -9%[15.4 µM] | -8
Cc1cc(C)n2nc(CNS(=O)(=O)c3ccc(CC(C)C)cc3)nc2n1 | 0 | 2% | -1.5 | 2 | -160%[inhibitor] | 0
C1CN(c2nc3nonc3nc2N2C[C@H]3CC[C@H]2C3)CCS1 | 5 | 4% | 4.7 | -6 | 2%[15.4 µM] | 0
CC1(C(=O)Nc2ccc3nc[nH]c3c2)CCN1C(=O)C1(c2ccccc2)CC1 (stereo not drawn) | 0 | . | -2.8 | 0 | . | 0
CC(=O)Nc1cc(C(=O)CSc2nnc(C3CC3)n2C2CC2)ccc1O | -10 | 7% | 1.0 | -5 | 1% | .
CCN(CC(=O)Nc1ccc(NC(C)=O)cc1)C(=O)c1c(-c2c(F)cccc2Cl)noc1C | 7 | -12% | -4.2 | -22 | -3% | 13
CCC(=O)Nc1nnc(-c2ccc(OC)cc2)o1 | -20 | 1% | 0.3 | -6 | -126% | -9
CC(=O)c1ccc(N(C(=O)Cn2nnc(-c3ccccc3)n2)C(C(=O)NC2CCCCC2)c2ccccn2)cc1 (stereo not drawn) | 6 | 0% | -0.6 | -25 | 0% | 4
COCCN(C(=O)c1ccc(-c2ccc(Cl)cc2)o1)c1c(N)n(CC(C)C)c(=O)[nH]c1=O | 0 | -5% | 9.3 | -2 | 1% | 0
Cc1nnc(NC(=O)c2cc(S(=O)(=O)N3CCCCC3)ccc2Cl)s1 | 1 | -10% | -4.2 | -8 | -6%[15.4 µM] | -3
CC(CCc1ccccc1)NC(=O)COC(=O)c1cc(NS(=O)(=O)c2ccc(Cl)c([N+](=O)[O-])c2)ccc1O (stereo not drawn) | 0 | ? | 5.3 | 15 | 4% | 12
Cc1ccc(S(=O)(=O)N2CCC(NC(=O)c3cccc(F)c3)CC2)cc1 | 28 | 3% | 3.7 | -21 | -20%[15.4 µM] | -9
Clc1ccc(OCc2noc(-c3ccsc3)n2)c(Cl)c1 | 26 | 1% | -3.4 | -4 | -13%[15.4 µM] | 33
O=C(O)CSc1nnc(NC(=O)c2ccc3c(c2)OCO3)s1 | 0 | -5% | 1.5 | 2 | 21% | 9

Screens: PubChem, National Center for Advancing Translational Sciences (NCATS)
